Source: PubChem
NOMO-1 viab: STK33 inhibitor candidate reducing NOMO-1 cell viability | NOMO-1 AML viability, CellTiter-Glo luminescence, 72 h | inhibition, % (test concentration not listed) | 37,000 compounds, 7.5% hits | AID 2330;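 active means most replicates above 80%; inconclusive means exactly half above 80%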;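 further: wells of about 30 µL received 25 nL stock; 0% = median of vehicle wells and 100% = reference inhibitor level; the first replicate is given; inactives centre near 10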
* marks the source's active call; other numbers are inactive results; ? = inconclusive.

Structure	NOMO-1 viab
C[C@@H]1CN([C@H](C)CO)C(=O)Cc2cc(NC(=O)Nc3ccc(F)cc3)ccc2O[C@@H]1CN(C)Cc1ccncc1	4.4
CCOc1ccc(NC(=O)CSc2nnc(-c3cccs3)n2C)cc1	2.3
CCn1c(SCC(=O)Nc2cccc(Cl)c2Cl)nnc1-c1ccc([N+](=O)[O-])cc1	33.0
Cc1noc(C)c1NC(=O)N(C)C[C@H]1Oc2ccc(NS(C)(=O)=O)cc2CC(=O)N([C@H](C)CO)C[C@H]1C	-9.6
Cc1ccc(S(=O)(=O)Nc2cccc3c2O[C@@H](CN(C)S(=O)(=O)c2cccs2)[C@H](C)CN([C@@H](C)CO)C3=O)cc1	-1.1
CNC[C@@H]1Oc2ccc(NC(=O)Nc3ccc(C(F)(F)F)cc3)cc2CC(=O)N([C@H](C)CO)C[C@@H]1C	3.4
O=C(COc1ccc(Cl)cc1Cl)NCCO	7.6
C[C@H]1CN([C@@H](C)CO)C(=O)Cc2cc(NS(C)(=O)=O)ccc2O[C@H]1CN(C)Cc1ccncc1	-15.9
C[C@@H]1CN([C@H](C)CO)C(=O)c2cccc(NS(=O)(=O)c3ccccc3)c2O[C@H]1CN(C)Cc1ccc(C(=O)Nc2ccccc2N)cc1	58.2
O=C(CC(=O)Nc1ccccc1OC(F)(F)F)Nc1ccccc1OC(F)(F)F	19.3
Cc1ccc(S(=O)(=O)N(C)C[C@H]2Oc3c(NC(=O)Nc4ccccc4)cccc3C(=O)N([C@@H](C)CO)C[C@@H]2C)cc1	45.5
Cc1noc(C)c1NC(=O)Nc1cccc2c1O[C@H](CN(C)Cc1ccc(C(=O)Nc3ccccc3N)cc1)[C@H](C)CN([C@@H](C)CO)C2=O	42.0
C[C@@H]1CN([C@H](C)CO)C(=O)c2cccc(NS(=O)(=O)c3ccc(F)cc3)c2O[C@@H]1CN(C)S(=O)(=O)c1cn(C)cn1	18.1
C[C@H](CO)N1C[C@H](C)[C@@H](CN(C)C)Oc2ccc(N(C)C)cc2C1=O	16.8
O=C(CCn1[nH]c(=O)c2ccccc2c1=O)NCc1ccccc1	-11.0
Cc1cccc(-c2nnc(SCC(=O)Nc3cccc(C(F)(F)F)c3)n2-c2ccccc2)c1	26.9
C[C@@H]1CCCCO[C@@H](CN(C)CC2CCCCC2)[C@@H](C)CN([C@H](C)CO)C(=O)c2cc(NS(=O)(=O)c3ccc(Cl)cc3)ccc2O1	96.8*
C[C@H](CO)N1C[C@H](C)[C@H](CN(C)C(=O)Nc2ccccc2)Oc2ccc(NC(=O)Nc3ccc(F)cc3)cc2C1=O	-4.2
C[C@@H]1CN([C@@H](C)CO)C(=O)Cc2cc(NS(C)(=O)=O)ccc2O[C@@H]1CN(C)C(=O)NC1CCCCC1	17.0
COc1ccc(CCn2cnc3oc(-c4ccccc4)c(-c4ccccc4)c3c2=N)cc1OC	-2.7
C[C@@H]1CN([C@H](C)CO)C(=O)c2cccc(NC(=O)Nc3cccc4ccccc34)c2O[C@H]1CN(C)S(=O)(=O)c1ccc(F)cc1	16.6
C[C@@H]1CN([C@@H](C)CO)C(=O)Cc2cc(NC(=O)CCCCCC(=O)Nc3ccccc3N)ccc2O[C@@H]1CN(C)Cc1ccc(-c2ccccc2)cc1	141.7*
Cc1ccc(S(=O)(=O)Nc2cccc3c2O[C@@H](CN(C)C(=O)Nc2cccc4ccccc24)[C@@H](C)CN([C@H](C)CO)C3=O)cc1	7.6
C[C@@H]1CCCCO[C@@H](CN(C)Cc2ccc(C(F)(F)F)cc2)[C@@H](C)CN([C@H](C)CO)C(=O)c2cc(NC(=O)NC3CCCCC3)ccc2O1	?
C[C@@H]1CN([C@@H](C)CO)C(=O)Cc2cc(NC(=O)Cc3cn(C)c4ccccc34)ccc2O[C@@H]1CN(C)CC1CCCCC1	28.7
Cc1ccc(S(=O)(=O)N(C)C[C@@H]2OCCCC[C@@H](C)Oc3ccc(NC(=O)CCCCCC(=O)Nc4ccccc4N)cc3C(=O)N([C@H](C)CO)C[C@@H]2C)cc1	19.6
Cc1cc2c(c(=O)n1CC1CCCO1)C(c1cccs1)C(C#N)=C(N)O2 (configuration not stated)	11.0
C[C@H]1CN([C@@H](C)CO)C(=O)Cc2cc(NC(=O)CCCCCC(=O)Nc3ccccc3N)ccc2O[C@@H]1CN(C)C(=O)Nc1ccccc1	-0.8
COCCNc1ncnc2c1cnn2-c1cccc(C)c1	-0.2
COc1ccc(CCNc2ncnc3scc(-c4cccs4)c23)cc1OC	?
O=C(CSc1nc(-c2ccccc2)cc(=O)[nH]1)Nc1ccccc1Cl	5.3
CCn1c(SCC(=O)Nc2ccc(C)cc2)nnc1-c1cccnc1	0.5
CC(C)NC(=O)N(C)C[C@H]1Oc2ccc(NC(=O)Nc3ccc4c(c3)OCO4)cc2C(=O)N([C@H](C)CO)C[C@H]1C	-22.5
C[C@@H]1CCCCO[C@@H](CN(C)C(=O)c2ccccc2)[C@@H](C)CN([C@H](C)CO)C(=O)c2cc(NC(=O)NC3CCCCC3)ccc2O1	3.7
O=c1nc2sc3ccccc3n2c(=O)n1-c1ccccc1	29.7
C[C@@H]1CN([C@@H](C)CO)C(=O)c2cccc(NS(=O)(=O)c3ccc(F)cc3)c2O[C@H]1CN(C)Cc1ccccc1	0.9
COc1ccc(C(=O)n2nc(-c3ccc(Cl)cc3)nc2NCc2ccco2)cc1	23.9
COc1ccc(NC(=O)c2ccc3nc(C)c(C)nc3c2)cc1	41.5
C[C@@H]1CCCCO[C@@H](CN(C)C(=O)C2CCCCC2)[C@@H](C)CN([C@H](C)CO)C(=O)c2cc(NC(=O)Nc3ccc(C(F)(F)F)cc3)ccc2O1	76.5
O=C(CSc1nnc(-c2ccccc2O)n1-c1ccccc1)NC1CCCCC1	24.6
COC(Cc1nc2ccccc2s1)C(=O)O (configuration not stated)	?
COc1ccc(S(=O)(=O)Nc2ccc3c(c2)C(=O)N([C@@H](C)CO)C[C@@H](C)[C@@H](CN(C)Cc2ccc4c(c2)OCO4)O3)cc1	0.8
Cc1ccc(Cl)cc1NC(=O)C(C)NS(=O)(=O)c1ccc(Br)cc1 (configuration not stated)	17.4
Cc1noc(C)c1S(=O)(=O)Nc1ccc2c(c1)C(=O)N([C@@H](C)CO)C[C@@H](C)[C@H](CN(C)Cc1ccc(C(=O)Nc3ccccc3N)cc1)O2	11.7
CC(C)(C)C(/C=C/c1ccc(Cl)cc1Cl)n1nnnc1C(C)(C)N1CCOCC1 (configuration not stated)	25.8
C[C@H]1CN([C@@H](C)CO)C(=O)Cc2cc(NC(=O)Cc3cn(C)c4ccccc34)ccc2O[C@@H]1CN(C)Cc1ccc(Oc2ccccc2)cc1	60.2
CC(C)NC(=O)N(C)C[C@@H]1Oc2ccc(NC(=O)CCN3CCOCC3)cc2C(=O)N([C@@H](C)CO)C[C@@H]1C	8.8
COc1ccc(Nc2ncnc3c2cnn3Cc2ccc(C)cc2)cc1	10.3
O=C(NC(Cc1ccc(F)cc1)C(=O)O)c1ccccc1 (configuration not stated)	25.3
COc1ccc(S(=O)(=O)N(C)C[C@@H]2Oc3ccc(NS(=O)(=O)c4ccc(C)cc4)cc3CC(=O)N([C@H](C)CO)C[C@@H]2C)cc1	21.4

The closing three compounds of the section above lead into the next:
Structure	NOMO-1 viab
COc1ccc(Nc2ncnc3c2cnn3Cc2ccc(C)cc2)cc1	10.3
O=C(NC(Cc1ccc(F)cc1)C(=O)O)c1ccccc1 (configuration not stated)	25.3
COc1ccc(S(=O)(=O)N(C)C[C@@H]2Oc3ccc(NS(=O)(=O)c4ccc(C)cc4)cc3CC(=O)N([C@H](C)CO)C[C@@H]2C)cc1	21.4
C[C@H](CO)N1C[C@H](C)[C@H](CN(C)S(C)(=O)=O)Oc2ccc(NS(C)(=O)=O)cc2C1=O	25.8
Cc1cccnc1NC(=S)NC(=O)c1cncc(Br)c1	-11.4
CN(CC(=O)Nc1ccc(Cl)c(Cl)c1)S(=O)(=O)c1ccc2ccccc2c1	-13.3
COc1ccc(C(=O)CSc2ncn[nH]2)cc1OC	-4.5
C[C@@H]1CN([C@H](C)CO)C(=O)c2cccc(NC(=O)C3CC3)c2O[C@H]1CN(C)C(=O)Nc1ccc2c(c1)OCO2	-11.6
C[C@H]1CN([C@@H](C)CO)C(=O)Cc2cc(NC(=O)Cc3cn(C)c4ccccc34)ccc2O[C@H]1CN(C)C(=O)Nc1ccc(C(F)(F)F)cc1	11.6
CS(=O)(=O)N(CC(=O)NC1CCCCC1)c1ccc(F)c(Cl)c1	-9.8
CNC[C@@H]1Oc2c(NC(=O)Nc3ccc(C(F)(F)F)cc3)cccc2C(=O)N([C@H](C)CO)C[C@H]1C	35.0
CCOC(=O)c1ccccc1NC(=O)CN1C(=O)c2cccc3cccc1c23	12.3
O=C(COc1cccc(NC(=O)c2ccc(Cl)cc2)c1)c1ccccc1	25.4
Cc1ccc(S(=O)(=O)Nc2ccc3c(c2)C(=O)N([C@@H](C)CO)C[C@H](C)[C@H](CN(C)C)O3)cc1	-14.0
CCCCCCCCCCCCCC(=O)N[C@@H](C)[C@H](O)c1ccccc1	-17.1
Nc1nc(N(Cc2ccccc2)Cc2ccccc2)nc(C(F)(F)F)n1	120.1*
C[C@@H]1CCCCO[C@H](CN(C)S(=O)(=O)c2ccccc2)[C@@H](C)CN([C@H](C)CO)C(=O)c2cc(NS(=O)(=O)c3cccs3)ccc2O1	-3.0
O=C(CC1C(=O)N(c2ccc(F)cc2)C(=O)N1Cc1ccccn1)Nc1ccccc1 (configuration not stated)	0.5
O=C(CNS(=O)(=O)c1ccc(Br)cc1)Nc1cccc(F)c1	-15.1
N#CC1=C(SCC(=O)Nc2ccccc2C(=O)c2ccccc2)NC(=O)CC1c1ccccc1F (configuration not stated)	-20.8
Cc1ccc(NC(=O)c2cc(=O)[nH]c(=O)[nH]2)cc1	-2.5
COc1cc2ncnc(Nc3cccc(Br)c3)c2cc1OC	-2.7
COc1cccc(OC)c1C(=O)Nc1cccc(C(=O)Nc2ccccc2C(=O)O)c1	-1.7
COc1ccc(C(=O)CC2(O)C(=O)N(Cc3ccccc3Cl)c3ccc(Cl)cc32)cc1OC (configuration not stated)	90.1*
COc1ccc(S(=O)(=O)N(C)C[C@H]2Oc3ccc(NC(=O)Cc4ccccc4)cc3C(=O)N([C@H](C)CO)C[C@@H]2C)cc1	14.6
Cc1noc(C)c1S(=O)(=O)Nc1ccc2c(c1)C(=O)N([C@H](C)CO)C[C@@H](C)[C@@H](CN(C)CC1CCCCC1)O2	2.2
COc1ccc(S(=O)(=O)N(C)CC(=O)NC2CCCC2)cc1	8.7
COc1ccc(NC(=O)N(C)C[C@@H]2Oc3ccc(NS(=O)(=O)c4ccc(Cl)cc4)cc3C(=O)N([C@@H](C)CO)C[C@@H]2C)cc1	-12.2
NS(=O)(=O)c1ccc(NC(=S)NCc2cccnc2)cc1	33.7
COc1ccc(S(=O)(=O)N(C)C[C@@H]2Oc3ccc(NS(=O)(=O)c4ccc(F)cc4)cc3C(=O)N([C@H](C)CO)C[C@@H]2C)cc1	18.1
C[C@@H]1CN([C@H](C)CO)C(=O)Cc2cc(NC(=O)C3CC3)ccc2O[C@H]1CN(C)Cc1ccc(Cl)c(Cl)c1	17.3
Cc1noc(C)c1S(=O)(=O)Nc1ccc2c(c1)CC(=O)N([C@H](C)CO)C[C@H](C)[C@H](CN(C)Cc1ccncc1)O2	15.7
C[C@H]1CN([C@@H](C)CO)C(=O)c2cccc(NC(=O)C3CCCCC3)c2O[C@H]1CN(C)S(=O)(=O)c1ccc(Cl)cc1	8.9
COc1ccc(CN(C)C[C@@H]2Oc3c(NS(=O)(=O)c4ccc(Cl)cc4)cccc3C(=O)N([C@H](C)CO)C[C@@H]2C)cc1	21.5
C[C@@H]1CN([C@H](C)CO)C(=O)Cc2cc(NS(=O)(=O)c3cn(C)cn3)ccc2O[C@@H]1CN(C)C(=O)Nc1ccc(F)cc1	18.9
C[C@@H]1CN([C@H](C)CO)C(=O)c2cccc(NS(=O)(=O)c3cccs3)c2O[C@H]1CN(C)C(=O)Nc1ccc2c(c1)OCO2	19.8
CC(C)NC(=O)N(C)C[C@@H]1Oc2c(NC(=O)Nc3cccc4ccccc34)cccc2C(=O)N([C@@H](C)CO)C[C@@H]1C	25.1
Cc1ccnc(SCC(=O)Nc2cccc(Cl)c2)n1	7.6
C[C@H](CO)N1C[C@H](C)[C@H](CN(C)Cc2ccc3c(c2)OCO3)Oc2ccc(N(C)C)cc2CC1=O	0.0
Cc1nc(C)c(C(=O)C2C(=O)C(=O)N(CCN(C)C)C2c2ccccc2F)s1 (configuration not stated)	-1.0
C[C@@H]1CCCCO[C@@H](CN(C)Cc2ccc(Cl)c(Cl)c2)[C@@H](C)CN([C@H](C)CO)C(=O)c2cc(NC(=O)c3ccccc3)ccc2O1	121.7*
CNC(=O)CN(c1ccc(C)cc1)S(=O)(=O)c1ccc(Cl)cc1	34.4
C[C@@H]1CN([C@H](C)CO)C(=O)c2cccc(NC(=O)c3nc4ccccc4s3)c2O[C@@H]1CN(C)Cc1ccc(Oc2ccccc2)cc1	54.9

A draw from above in order of length of the SMILES, largest number first:
Structure	NOMO-1 viab
C[C@@H]1CN([C@H](C)CO)C(=O)c2cccc(NS(=O)(=O)c3cccs3)c2O[C@H]1CN(C)C(=O)Nc1ccc2c(c1)OCO2	19.8
C[C@H]1CN([C@@H](C)CO)C(=O)c2cccc(NC(=O)C3CCCCC3)c2O[C@H]1CN(C)S(=O)(=O)c1ccc(Cl)cc1	8.9
Cc1nc(C)c(C(=O)C2C(=O)C(=O)N(CCN(C)C)C2c2ccccc2F)s1 (configuration not stated)	-1.0
NS(=O)(=O)c1ccc(NC(=S)NCc2cccnc2)cc1	33.7

This is a subset (hit frequency here may not be typical).
